# OX1R antag = human HCRTR1 antagonism; CHO/OX1R cells, Fluo-8 calcium fluorescence, orexin A; inhibition, % at 5 µM; hit rate 0.43% among 330,000; AID 434989;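 active means inhibition above its plate's threshold, mean inhibition of all tested compounds on the plate plus 3 SD, cut at about 37% in these data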;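 further: 0% = orexin A challenge wells and 100% = SB-334867-A antagonist wells; not every result past the cut was called active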
# Target sequence (O43613 whole entry, looked up): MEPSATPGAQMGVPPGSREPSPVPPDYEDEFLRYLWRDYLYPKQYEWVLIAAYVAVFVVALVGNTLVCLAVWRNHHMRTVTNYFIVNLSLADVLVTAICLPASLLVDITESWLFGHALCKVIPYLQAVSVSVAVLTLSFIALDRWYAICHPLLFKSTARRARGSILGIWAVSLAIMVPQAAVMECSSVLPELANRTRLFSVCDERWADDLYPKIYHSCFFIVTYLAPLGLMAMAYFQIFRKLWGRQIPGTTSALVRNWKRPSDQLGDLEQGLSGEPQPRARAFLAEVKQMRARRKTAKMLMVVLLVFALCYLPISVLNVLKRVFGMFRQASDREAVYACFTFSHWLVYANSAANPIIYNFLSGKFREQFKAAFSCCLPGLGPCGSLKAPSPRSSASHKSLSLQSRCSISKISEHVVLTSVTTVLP
# * hit, by the source's call.
SMILES,OX1R antag
CC(NC(=O)c1cnccn1)c1ccc(S(N)(=O)=O)cc1 (centres undefined),-17
CCCCOC(=O)c1ccc(NC(=O)c2cnccn2)cc1,3
CC(=O)Nc1ccc(NC(=O)CSc2nnc(-c3ccccc3)n2Cc2ccc3c(c2)OCO3)cc1,-33
Cc1cc(C)cc(C(=O)NN2CCOCC2)c1,-3
Cc1c(C(=O)N/N=C/c2ccccc2)[nH]c2c([N+](=O)[O-])cccc12,-15
COCCNC(=O)c1c(N)n(/N=C/c2ccc(F)cc2)c2nc3ccccc3nc12,-5
O=C(Nc1nnc(Cc2ccccc2)s1)Nc1ccccc1F,-6
Cn1c(SCC(=O)Nc2ccccc2F)nnc1-c1cccnc1,4
COc1ccc2nc(SCC(=O)Nc3ccc4c(c3)OCCO4)[nH]c2c1,-27
CC(C)(C)c1csc(NC(=O)Cc2ccc(S(=O)(=O)N3CCOCC3)s2)n1,-7
CCN1CCN(c2nc3ccccn3c(=O)c2/C=C(\C#N)S(=O)(=O)c2ccccc2)CC1,-17
CCOc1cc(C2NC(=S)NC(C)=C2C(=O)Nc2ccccc2)ccc1O (centres undefined),-14
COC(=O)c1ccccc1NC(=O)Cn1cnc2c(cnn2-c2ccc(C)c(C)c2)c1=O,-23
CC(=O)N1N=C(c2ccc(Cl)cc2)OC1c1ccc(C(C)C)cc1 (centres undefined),-26
NC(=NCCc1ccccc1)NS(=O)(=O)c1cccs1,-17
CC(O)(CS(=O)(=O)Cc1ccccc1)C(=O)Nc1cccc(C(F)(F)F)c1 (centres undefined),-31
Cc1cc(C)cc(OCC(O)Cn2nc(C)cc2C)c1 (centres undefined),-26
O=C(Cc1c(F)cccc1Cl)NC1=NCCS1,-11
COc1ccc(Br)cc1S(=O)(=O)n1ccnc1C,4
COc1cc(S(=O)(=O)N(Cc2ccccn2)Cc2ccccc2Cl)ccc1-n1cnnn1,-37
COc1cccc(OC)c1C(=O)OCC(=O)NCCCc1ccccc1,-14
O=C(CSc1nc(-c2ccccc2Cl)ns1)c1ccc(Cl)cc1,-13
CC(C)n1cc(CN2CCC(C(=O)Nc3cccc(-c4cscn4)c3)CC2)cn1,-5
CCOc1ccc2c(c1)[nH]c(=S)n2C,-14
Cc1cc(C(=O)CSc2nnnn2C)c(C)n1CCc1ccc(Cl)cc1,-15

# Next section.
SMILES,OX1R antag
Cc1ccc(S(=O)(=O)NNC(=O)Nc2cccc(C)c2C)c(C)c1,-34
CCOC(=O)c1c(C)[nH]c(C)c1C(=O)CSc1nnc(-c2ccncc2)n1Cc1ccccc1,-23
CCC(C)C1=CC(=Nc2c(C)n(C)n(-c3ccccc3)c2=O)C=C(C(C)CC)C1=O (centres undefined),-19
O=C(NC1CC1)C1=C[C@@H](c2c[nH]c3ccccc23)C[C@@H](OCCCCO)O1,-7
O=C(N/N=C/C=C/c1ccccc1)c1ccc(Br)cc1,5
CS(=O)(=O)c1ccc(-c2cc(Br)sc2-c2ccc(F)cc2)cc1,-10
CCN(CC)c1ccc(C2C(C(=O)OC)=C(C)NC(C)=C2C(=O)OC)cc1,-19
CC(/C=C/c1ccco1)=N\NC(=O)C(O)c1ccccc1 (centres undefined),-10
Cc1ccnc(NC(=O)c2ccc(Br)s2)c1,-26
CCCCN1C(=O)C2NN=C(C(=O)OC)C2C1=O (centres undefined),-5
O=S(=O)(c1ccccc1)c1nc(-c2ccco2)oc1N1CCCCC1,-15
COC(=O)CSc1ccc(C#N)c(SCC(=O)OC)c1,0
COc1ccc(-c2nnc(SCC(=O)N(Cc3ccccc3)C(C)(C)C)o2)cc1OC,-28
COc1ccc(NC(=O)Nc2ccccc2F)cc1,0
CCOc1ccc(-n2cnnn2)cc1S(=O)(=O)NCc1ccccc1,12
Cc1nn(Cc2ccccc2)c2c1C(c1ccc(Cl)cc1)C(C#N)=C(N)O2 (centres undefined),-15
CCc1ccc(N2C(=O)c3ccc4c5c(ccc(c35)C2=O)CC4)cc1,-20
CCN(CC)c1ccc(C(=O)OCC(=O)NCC2CCCO2)cc1 (centres undefined),-10
CC(=O)NCC(=O)OCC(=O)c1ccccc1,-1
Cc1onc(-c2ccccc2)c1C(=O)Nc1ccnn1C1CCCCC1,-46
CC(=O)c1ccc(Nc2c(C)n(C)n(-c3ccccc3)c2=O)cc1,1
Cc1ccc(-c2nnn(CC(=O)NCCC3=CCCCC3)n2)cc1,-6
Cc1ccc2cc(CN(Cc3cccs3)C(=O)c3ccco3)c3nnnn3c2c1C,-14
Cc1sc2nc(SCC(=O)Nc3c(C)n(C)n(-c4ccccc4)c3=O)n(C)c(=O)c2c1C,-15
CC1CN(C(=O)c2cccc(S(=O)(=O)Nc3ccccc3Cl)c2)CC(C)O1 (centres undefined),-17

# Further compounds follow.
SMILES,OX1R antag
CN1CCC(=NNc2ccc(S(=O)(=O)N3CCOCC3)cc2[N+](=O)[O-])CC1,-15
O=C(c1ccco1)N1CCN(c2nc(C(F)(F)F)nc3c2nnn3Cc2ccccc2)CC1,-28
C#CCOCCOCCOCCNc1nc(N2CCOCC2)nc(N2CCN(C(=O)[C@H](CCC(=O)O)n3cc(C(N)[C@H](C)CC)nn3)CC2)n1 (some centres undefined),-6
Cc1nn(C)cc1C1Nc2ccccc2C(=O)N1O (centres undefined),4
O=C(Cn1c(=O)oc2cc(S(=O)(=O)N3CCc4ccccc43)ccc21)N1CCCCC1,-15
CN(C)CCCNc1c2ccccc2nc2ccccc12,-10
CCOC(=O)Cc1c(C)nc2c(-c3cccc(Br)c3)cnn2c1C,-13
CC(=O)N(\C=C/C=C/C=C1\Sc2ccccc2C1=O)c1ccccc1,-4
Cc1ccc(NC(=O)CC2=NC(=O)C(CC(=O)Nc3ccccc3C)S2)cc1 (centres undefined),-4
O=C(N/N=C\c1ccco1)c1cncc(Br)c1,-3
CCC(C)NC(=O)[C@@H]1CCCN1C(=O)C1CCN(S(=O)(=O)c2ccc(C)cc2)CC1 (some centres undefined),-5
CC(C)(C)NC(=O)NC(=O)CN1CCN(C(c2ccccc2)c2ccccc2)CC1,-25
Cc1ccc2ncccc2c1NC(=S)NC(=O)c1ccccc1,-35
CC(C)COc1ccc(CNC(=S)N/N=C/c2ccc([N+](=O)[O-])cc2)cc1,-25
O=S(=O)(c1cccc2nonc12)N1CCN(c2ccc(F)cc2)CC1,8
O=c1cc(CN2CCCCCC2)nc2sccn12,-22
COc1ccc(/C=N/NC(=O)CCOc2ccccc2C)cc1OC,-12
O=C(NCCO)c1c(O)c2cccc3c2n(c1=O)CC3,-12
O=C(NCCNC(=O)c1ccco1)c1ccc(F)cc1,-19
Cc1ccc(OCc2ccc([N+](=O)[O-])cc2)c([N+](=O)[O-])n1,-1
CCCn1cc(SCC(=O)Nc2ccc3c(c2)OCO3)c2ccccc21,5
Cc1ccnc(NC(=O)c2cccc3ccccc23)c1,-23
CC(C)CC(C(=O)Nn1cnnc1)N1C(=O)c2ccccc2C1=O (centres undefined),4
CSc1ccc(CNCc2ccc3c(c2)OCO3)cc1,-17
CC(=O)Nc1ccc(OCC(O)CNC(C)C)cc1 (centres undefined),11

# Next part.
SMILES,OX1R antag
COc1cc(/C=C2\SC(N)=NC2=O)ccc1OCC(=O)Nc1ccc(C)cc1,-3
Cc1cc(C)c2c(N)c(S(=O)(=O)Cc3ccccc3)sc2n1,-26
COc1ccc(NC(=O)COC(=O)C2CC(=O)N(Cc3ccc(C)cc3)C2)cc1 (centres undefined),-3
COCCCNC(=O)C(=O)NCCCOC(C)C,-12
O=C1CN(C(=O)COC(=O)c2cccc(OCc3ccccc3)c2)c2ccccc2N1,17
COc1ccc(/C=N/NC(=O)C(=O)NCc2cccnc2)cc1,-13
CC(C)COC(=O)Nc1ccc(C(=O)O)cc1,-2
CCCCc1c(C)nn(-c2nnc3c4ccccc4n(C)c3n2)c1C,-17
COc1cc(C(=O)N/N=C2\CCS(=O)(=O)c3ccc(F)cc32)cc(OC)c1OC,-10
Cc1cc(OCC(=O)NCCO)cc(C)c1Cl,-10
CCOc1ccccc1NS(=O)(=O)c1cc2c3c(c1)CC(=O)N3CCC2,-23
Cc1ccnc(SC2CC(=O)N(c3ccc([N+](=O)[O-])cc3)C2=O)n1 (centres undefined),-18
O=C(CSc1n[nH]c(-c2cccnc2)n1)Nc1ccccc1[N+](=O)[O-],-9
CN(C)CCN(C(=O)c1ccc(S(=O)(=O)N2CCc3ccccc32)cc1)c1nc2ccc(F)cc2s1,-1
CC(NC(=O)c1ccccc1)C(=O)N/N=C/c1ccco1 (centres undefined),-14
CCC1(CC)NC(=O)N(CC(=O)OCC(=O)NC(=O)c2ccccc2)C1=O,-9
CCOc1ccc2nc(NCCNC(=O)Nc3cccc(C)c3)c(C#N)cc2c1,-30
CC(C)NC(=O)c1ccccc1NC(=O)C1CCCO1 (centres undefined),-6
Cc1ccc(C(=O)NCCNS(=O)(=O)c2ccccc2)cc1,-22
CCn1c(SCc2cccc(C)c2)nnc1-c1ccccc1,-13
COc1ccc(C(=O)N2CCc3cc4c(cc3C2C)OCCCO4)cc1 (centres undefined),-19
CCc1nc2cc(Cl)c(Cl)cc2[nH]1,4
COc1cc(CNCc2ccco2)cc(OC)c1O,6
COc1ccc(Cl)cc1NC(=O)CN(C)C(=O)Cn1cnc2c1c(=O)n(C)c(=O)n2C,-21
Cc1cccc(C)c1NC(=O)Nc1ccc2c(c1)OCO2,1

# 2 entries drawn at random from those above, as already listed:
SMILES,OX1R antag
Cc1cccc(C)c1NC(=O)Nc1ccc2c(c1)OCO2,1
CCc1nc2cc(Cl)c(Cl)cc2[nH]1,4

# (listing goes on)
SMILES,OX1R antag
Cc1ccc2cc(/C=N/Nc3ccc(C(=O)O)cc3)c(Cl)nc2c1,-11
COc1ccc(C2OC(=O)CC2C(=O)NCc2ccc(C)cc2)cc1OC (centres undefined),-32
Cc1ccc(/C=N/n2c(-c3ccc(Cl)cc3)n[nH]c2=S)s1,-15
CC(C)CC1(C)NC(=O)N(CC(=O)NC(=O)Nc2ccc3c(c2)OCCO3)C1=O (centres undefined),-18
O=C(CN1C(=O)S/C(=C\c2ccc(Cl)cc2)C1=O)NCCCn1ccnc1,-13
O=C(c1ccco1)N1CCN(C(=O)c2ccccc2Oc2ccccc2)CC1,-5
CCOc1ccc(Cc2nnc(SCC(=O)c3ccc(OC)cc3)o2)cc1,2
COc1ccc(/C(C)=N/NC(=O)C(NC(=O)c2ccccc2)c2n[nH]c(=O)c3ccccc23)c(OC)c1 (centres undefined),-14
Cc1ccc2[nH]c(=O)c(-c3nc4ccccn4c3NCc3ccco3)cc2c1,-10
COC(=O)N/N=C/c1cn(CCCOc2ccc(C)cc2)c2ccccc12,-36
C/C(CC(=O)NCc1ccco1)=N\NC(=O)c1ccc([N+](=O)[O-])cc1Cl,-20
O=C(CN1CCSCC1)N/N=C/c1cccc(Cl)c1,-6
C(=C\c1ccccc1)/CSc1nnc(-c2ccccn2)n1Cc1ccco1,-8
O=C(Nc1ccc(Br)cc1)C1CC=CCC1C(=O)OCC1CCCO1 (centres undefined),-19
O=C1c2cnc3nc(SCc4ccccc4)nn3c2CC2c3ccccc3CCN12 (centres undefined),-20
Cc1ccnc(NC(c2cccnc2)c2ccc3cccnc3c2O)c1 (centres undefined),-24
Cn1nc(OCCOc2ccccc2)ccc1=O,-10
O=C(NC(=S)Nc1ccc(F)cc1)C1CCCCC1,-23
O=C(CNC(=O)c1cccs1)N/N=C/c1ccco1,-10
CCc1nc2ccccc2c(C(=O)OCC(=O)NC(=O)c2cccn2C)c1C,-18
Cn1c(=NC(=O)c2ccccc2[N+](=O)[O-])sc2cccc(F)c21,-6
CCOC(=O)N1CCN(c2c(N3CCc4ccccc43)c(=O)c2=O)CC1,-20
C=CCNCCCOc1ccc(C)cc1Br,-13
COCCn1c(SCCN2CCCCC2)nc2ccccc2c1=O,-7
Cc1ccc(NC(=S)NCCc2c[nH]c3ccccc23)c(C)c1,-13

# Taken from above:
# Value for CCc1nc2ccccc2c(C(=O)OCC(=O)NC(=O)c2cccn2C)c1C under OX1R antag: -18
# Value for O=C(CNC(=O)c1cccs1)N/N=C/c1ccco1 under OX1R antag: -10
# Value for C/C(CC(=O)NCc1ccco1)=N\NC(=O)c1ccc([N+](=O)[O-])cc1Cl under OX1R antag: -20
# Value for O=C(CN1C(=O)S/C(=C\c2ccc(Cl)cc2)C1=O)NCCCn1ccnc1 under OX1R antag: -13
# Value for Cn1c(=NC(=O)c2ccccc2[N+](=O)[O-])sc2cccc(F)c21 under OX1R antag: -6

# (further entries)
SMILES,OX1R antag
O=C(/C=C/c1ccccc1)N/C(=C/c1ccccc1)C(=O)NCCCO,7
Cc1nc(NC(=O)c2cc3ccccc3o2)sc1C,-11
Cc1ccc(Cn2nc(C)c(C(=O)NCC(c3cccs3)N3CCOCC3)c2Cl)cc1 (centres undefined),-42
CC(=O)CSc1nc2c(c(=O)[nH]c(=O)n2C)n1Cc1ccccc1Cl,-9
Cc1ncc(CN2CCC(n3nccc3NC(=O)c3ccccc3)CC2)s1,-10
COc1cccc(CNC(=O)c2ccc(N3CCOCC3)c([N+](=O)[O-])c2)c1,-14
O=C(Nc1ccccc1)Nc1sccc1-c1nc2ccccc2s1,-27
COc1ccc(N2CCN(c3oc(-c4ccccc4OC)nc3C#N)CC2)cc1,-9
CCCCN(CC)C(=O)c1ccc(-c2ccccc2)cc1,-26
CC(=O)NCCn1c(SCC(=O)NCCC(C)C)nc2ccccc2c1=O,-9
NS(=O)(=O)c1ccc(NC(=S)Nc2ccc(OCc3ccccc3)cc2)cc1,-1
COc1ccc(N(CC(=O)N/N=C(\C)c2ccc(C)cc2)S(=O)(=O)c2ccccc2)cc1,-24
O=C1CCN(Cc2ccccc2)CCN1[C@H](CO)c1ccccc1,-16

# 6 entries already listed, arranged by formula weight, descending.
SMILES,OX1R antag
Cc1ccc(Cn2nc(C)c(C(=O)NCC(c3cccs3)N3CCOCC3)c2Cl)cc1 (centres undefined),-42
CC(=O)NCCn1c(SCC(=O)NCCC(C)C)nc2ccccc2c1=O,-9
Cc1ncc(CN2CCC(n3nccc3NC(=O)c3ccccc3)CC2)s1,-10
O=C(Nc1ccccc1)Nc1sccc1-c1nc2ccccc2s1,-27
O=C(/C=C/c1ccccc1)N/C(=C/c1ccccc1)C(=O)NCCCO,7
CCCCN(CC)C(=O)c1ccc(-c2ccccc2)cc1,-26

# Assay outcomes from PubChem.

# Some of the compounds tested; most or all hits stand in other tables.
